Assay outcomes as filed in PubChem.
KCNQ2 inh = KCNQ2 potassium channel inhibitors, primary screen, cell-based, CHO-K1, FluxOR thallium flux, B-score (AID 2156); 20 min; stronger effect = lower value; only compounds with negative scores are shown here; some inactives read as strong as hits; hit rate 1.1% among 310,000; O88943; B-score at 10 µM;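 active = fluorescence ratio B-score at most minus 3 library SDs, with starting brightness B-score within 2 library SDs, cut at about -5.5 in these data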
Target sequence (O88943 whole entry, looked up): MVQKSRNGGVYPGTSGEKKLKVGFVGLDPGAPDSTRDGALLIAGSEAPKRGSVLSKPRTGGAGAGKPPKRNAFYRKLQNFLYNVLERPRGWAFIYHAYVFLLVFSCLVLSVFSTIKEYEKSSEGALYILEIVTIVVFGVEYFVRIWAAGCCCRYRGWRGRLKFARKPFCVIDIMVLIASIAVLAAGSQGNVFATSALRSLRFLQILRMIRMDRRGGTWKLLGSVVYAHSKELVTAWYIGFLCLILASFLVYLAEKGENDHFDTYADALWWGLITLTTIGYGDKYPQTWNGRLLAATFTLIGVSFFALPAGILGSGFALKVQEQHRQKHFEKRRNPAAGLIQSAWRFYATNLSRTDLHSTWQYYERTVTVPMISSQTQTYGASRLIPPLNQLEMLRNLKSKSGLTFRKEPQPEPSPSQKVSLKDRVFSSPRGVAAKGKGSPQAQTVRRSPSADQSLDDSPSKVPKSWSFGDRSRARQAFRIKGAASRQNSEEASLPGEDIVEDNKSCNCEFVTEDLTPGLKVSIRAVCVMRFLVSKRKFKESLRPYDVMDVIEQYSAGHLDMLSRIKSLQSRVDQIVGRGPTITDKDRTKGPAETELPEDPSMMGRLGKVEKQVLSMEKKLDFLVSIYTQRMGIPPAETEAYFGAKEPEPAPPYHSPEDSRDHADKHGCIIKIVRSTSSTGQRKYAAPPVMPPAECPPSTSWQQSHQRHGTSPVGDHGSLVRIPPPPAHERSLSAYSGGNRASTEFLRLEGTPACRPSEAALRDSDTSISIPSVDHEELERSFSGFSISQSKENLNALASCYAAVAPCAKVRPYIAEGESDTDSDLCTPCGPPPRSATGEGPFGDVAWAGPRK
KCNQ2 inh baseline = also measured in KCNQ2 inh; calls as there; B-score; measured here: initial fluorescence intensity artifact check;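 brightness before thallium and not channel activity; 0 = typical well and far values either way flag optical interference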
* hit, by the source's call; i = inactive. A portion of the library. The share of hits here may be higher or lower than overall.

KCNQ2 inh	KCNQ2 inh baseline	smiles
i	0.1	COc1cccc(C(=O)N/N=C(/CCC(=O)O)c2ccccc2)c1
i	0.4	NNC(=O)c1sc2nc(N3CCOCC3)c3c(c2c1N)CCCC3
i	-0.6	CC1(c2nnc(-c3cccc(Cl)c3)o2)CC(c2ccccc2Br)=NO1 (stereo not given)
i	1.02	Cc1cccc(C)c1OCC(=O)Nc1cc(Cl)ccc1-n1cncn1
i	-1.2	Cc1cc(-c2nnc(CCC(=O)NC(C)c3ccc(F)cc3)o2)no1 (stereo not given)
i	2.27	Cc1ccc(C(=O)NNC(=S)NCC2CCCO2)cc1[N+](=O)[O-] (stereo not given)
i	-1.42	CN(C)c1ccc(CN(C(=O)COc2ccc(F)cc2)C2CCS(=O)(=O)C2)cc1 (stereo not given)
i	-0.23	CCc1ccccc1NC(=O)CN(C)S(=O)(=O)c1ccc(-c2ccc(=O)[nH]n2)s1
i	1.39	CC(NC(=O)c1ccccc1O)c1ccccc1 (stereo not given)
i	-1.21	O=C(COC(=O)CCc1c[nH]c2ccccc12)NCc1ccc(Cl)cc1
i	2.15	Nc1c(C(=O)OCC(=O)NCc2ccccc2)[nH]c(=O)[nH]c1=O
i	-0.19	COc1ccc(Cl)cc1NC(=O)c1ccco1
i	-0.01	O=C(O)/C=C/c1cccc2c1OCCO2
i	-1.39	COCOc1cc(O)c2c(=O)c(OCOC)c(-c3ccc(OCOC)c(OCOC)c3)oc2c1
i	-1.36	COc1ccc(CN2CCN(Cc3cc4ccccc4o3)CC2CCO)cc1C (stereo not given)
i	-0.28	CCOC(=O)c1c(-c2ccc(C)c(C)c2)csc1NC(=O)C1CC=CCC1C(=O)O (stereo not given)
i	2.45	COc1ccc(-c2cc(C(F)(F)F)nc(SCC(=O)NCCCN3CCOCC3)n2)cc1
i	0.07	CS(=O)(=O)N(CC(=O)N1CCN(c2cccc(Cl)c2)CC1)C1CCCCC1
i	0.74	COc1ccc(N(CC(=O)Nc2ccccc2C(=O)NCCc2ccccc2)S(C)(=O)=O)cc1OC
i	1.77	CSc1nc(N(C)C)c2ccccc2n1
i	-1.34	CSc1nnc(-c2cccn(Cc3ccccc3)c2=O)o1
i	0.02	CN(C)S(=O)(=O)c1ccc(C(=O)Nc2nnc(-c3cccs3)o2)cc1
i	0.11	CCn1ccnc1CN(C)C(=O)C1CCC(=O)N(Cc2cccc(F)c2)C1 (stereo not given)
-6.97*	-0.47*	O=C(CCN1CCc2ccccc2C(O)(c2ccccc2)C1)c1ccc2c(c1)OCCO2 (stereo not given)
i	1.71	O=C(COC(=O)COc1ccccc1[N+](=O)[O-])Nc1ccccc1Br
i	-0.48	CC(=O)N1CCOc2ccc(S(=O)(=O)N(C)c3ccc(C)cc3)cc21
i	-0.19	COc1ccc(C(C(=O)NCc2ccccc2)N(C(=O)c2snc(C(N)=O)c2N)C2CCCC2)cc1 (stereo not given)
i	-0.02	O=c1nc(N2CCOCC2)nc(N/N=C/c2ccc3c(c2)OCO3)[nH]1
i	-0.47	O=S1(=O)CCOC[C@H](CC2CCCCC2)N1Cc1ccccc1F
i	-1.52	COc1cccc(CC(=O)N(CCC2=CCCCC2)c2c(N)n(Cc3ccccc3)c(=O)[nH]c2=O)c1
i	-1.37	COc1ccc(C(=O)NNC(=S)NC(=O)/C=C/c2cccs2)cc1
i	-0.94	COc1ccc(C2=NN(C(=O)CSc3cn(C)c4ccccc34)C(c3ccc(OC)cc3)C2)cc1 (stereo not given)
-8.26*	-0.82*	Cn1c(C(=O)N(Cc2ccccc2)Cc2ccccn2)cc2sccc21
i	-0.34	Cc1ccc(C)c(S(=O)(=O)N2CCN(C(=O)c3ccc(-n4cncn4)c([N+](=O)[O-])c3)CC2)c1
i	-1.64	CCNc1nc(-c2ccc(OC(F)F)cc2)c(C)s1
i	-0.83	Cc1ccc(NC(=O)c2ccc(N3CCOCC3)c([N+](=O)[O-])c2)cc1S(=O)(=O)N1CCOCC1
i	0.04	CCOC(=O)N1CCN(C(=O)Cn2cnc3ccccc3c2=O)CC1
i	0.45	CCOC(=O)C1=C(C)C2C3C(=O)N(c4cc(C)ccc4C)C(=O)C3C1(C)C1C(=O)N(c3cc(C)ccc3C)C(=O)C21 (stereo not given)
i	-0.51	COc1ccc(C(=O)N2CCCC(c3nc(-c4cccs4)no3)C2)cc1OC (stereo not given)
i	-0.12	COc1ccccc1/C=C/C=N/n1c(-c2ccc(Cl)cc2Cl)n[nH]c1=S
i	1.31	O=C(NC1CCCCNC1=O)c1ccc(Cl)cc1 (stereo not given)
i	0.63	COc1ccccc1CCNC(=O)CSc1nnc2ccc(-c3cccnc3)nn12
i	0.51	COc1ccc([N+](=O)[O-])cc1NC(=O)CCN1CCN(c2ccccc2)CC1
i	-1.46	O=C(CC1CCCCC1)c1c(O)c2ccccc2oc1=O
i	-1.07	O=C1c2ccccc2C(=O)N1OCc1c(F)cccc1Cl
i	-1.71	CN1CCN(Cc2cc(=O)oc3cc4c(cc23)CCC4)CC1
i	-1.33	CCOc1cc(/C=N/NC(=O)c2cccnc2)ccc1OCC(=O)N(C)C
i	6.73	O=C(NC1CCN(Cc2ccccc2)CC1)c1ccc(N2CC3CC(C2)c2cccc(=O)n2C3)c([N+](=O)[O-])c1 (stereo not given)
i	2.02	COc1ccccc1NS(=O)(=O)c1cccc(C(=O)NCC(c2ccccc2OC)N2CCCC2)c1 (stereo not given)
i	0.75	COc1ccc(Cl)cc1NC(=S)NCCC(c1ccccc1)c1ccccc1
i	-0.22	CC(C)Oc1ccc(S(=O)(=O)N2CCOCC2)cc1NC(=O)C1CCC1
i	-2.62	C[C@@H](C(=O)CC(=O)OC(C)(C)C)[C@@H](O)c1c(F)cccc1Cl
i	-0.02	C=CCN1CCN(C(=O)CCCc2ccccc2)CC1
i	0.38	Cc1cc(C)cc(CSCC(=O)N/N=C/c2ccc(OCC(=O)NCc3ccco3)cc2)c1
i	0.09	O=C(Nc1ccc(O)c(-c2nc3ccccc3o2)c1)C1(c2ccc(Cl)cc2)CCCC1
i	3.46	CN(C)CCCN1C(=O)c2cccc3c(Br)ccc(c23)C1=O
i	-0.34	CN(C)/C=C/c1c([N+](=O)[O-])c2ccc(O)cc2n1-c1ccccc1
i	2.35	COc1ccc(S(=O)(=O)Nc2nc3c(s2)C(=O)CC(C)(C)C3)cc1
i	0.38	COc1ccc(/C=C/C(=O)NCC(=O)N/N=C(/CCC(=O)O)c2ccccc2)cc1
i	0.43	Cc1cc2c(c(=O)n1Cc1cccnc1)C(c1cccs1)C(C#N)=C(N)O2 (stereo not given)

Five entries from above, with two lines to a compound.
Every second line gives: KCNQ2 inh, KCNQ2 inh baseline
COc1ccc(Cl)cc1NC(=S)NCCC(c1ccccc1)c1ccccc1
 : i, 0.75
CC(C)Oc1ccc(S(=O)(=O)N2CCOCC2)cc1NC(=O)C1CCC1
 : i, -0.22
Cc1cc(C)cc(CSCC(=O)N/N=C/c2ccc(OCC(=O)NCc3ccco3)cc2)c1
 : i, 0.38
COc1ccc(/C=C/C(=O)NCC(=O)N/N=C(/CCC(=O)O)c2ccccc2)cc1
 : i, 0.38
CCOc1cc(/C=N/NC(=O)c2cccnc2)ccc1OCC(=O)N(C)C
 : i, -1.33

(further entries)
KCNQ2 inh	KCNQ2 inh baseline	smiles
i	-1.96	CC1CCCCN1Cc1c(O)ccc2c(=O)c(-c3nc4ccccc4s3)c(N)oc12 (stereo not given)
i	-0.79	CC(=O)c1ccc(N2CCN(CC(=O)NCc3ccccc3)CC2)cc1
i	0.25	O=C(CCC(=O)N1CCN(c2ccc(O)cc2)CC1)c1cccs1
i	-1.11	CCCC(=O)C1=C(O)C(C(=O)OC)C(C)(C)CC1=Nc1cccc([N+](=O)[O-])c1 (stereo not given)
i	-1.94	O=C1c2ccccc2C(Nc2ccc3c(c2)OCCO3)N1c1ccc(Cl)cn1 (stereo not given)
i	0.38	CC(C)c1ccc(S(=O)(=O)N2CCN(C(=O)Cc3ccsc3)CC2)cc1
i	0.19	CCOC(=O)c1c(NC(=O)COC(=O)c2cnccn2)sc(C(=O)NC)c1C
i	0.45	Cc1csc(C(C#N)C(=O)c2ccc(S(=O)(=O)N3CCCC3)cc2)n1 (stereo not given)
i	-1	COc1ccc2[nH]c3c(=O)n(/N=C/c4ccc(OC)c(CN5CCCC5)c4)c(C)nc3c2c1
i	-0.17	COc1ccccc1C(=O)NC(C)c1cccc2ccccc12 (stereo not given)
i	0.76	COc1ccc(N/C(=C(/C(Cl)=C(Cl)Cl)[N+](=O)[O-])n2nnc3ccccc32)cc1
i	2.08	C#CCOCCOCCOCCNc1nc(N2CCN(C(=O)[C@H](CCCCN)n3cc(C(N)CO)nn3)CC2)nc(N2CCN(C(=O)[C@H](CCC(=O)O)n3cc(C(N)Cc4ccc(O)cc4)nn3)CC2)n1 (stereo not given in full)
i	-1.02	Cc1cccc(-c2cc(N)n(-c3ccccc3)n2)c1
i	4.14	Cc1occc1C(=O)N(Cc1nc(-c2ccccc2)no1)C(C)C
i	-0.04	CCOC(=O)NC(c1ccc(C(C)C)cc1)C(Cl)(Cl)Cl (stereo not given)

Molecules from the list above that contain a furan ring, fused or not, in the order listed:
KCNQ2 inh	KCNQ2 inh baseline	smiles
i	-0.19	COc1ccc(Cl)cc1NC(=O)c1ccco1
i	-1.36	COc1ccc(CN2CCN(Cc3cc4ccccc4o3)CC2CCO)cc1C (stereo not given)
i	0.38	Cc1cc(C)cc(CSCC(=O)N/N=C/c2ccc(OCC(=O)NCc3ccco3)cc2)c1
i	4.14	Cc1occc1C(=O)N(Cc1nc(-c2ccccc2)no1)C(C)C

(more compounds)
KCNQ2 inh	KCNQ2 inh baseline	smiles
i	5.07	COc1ccc(CCNC(=O)COc2cccc3c2OC(C)(C)C3)cc1OC
i	-0.44	Cc1ccc(NNC(=O)c2c(C)noc2C)cc1Cl
i	-3.06	Cc1cccc(OC(=O)C2C(c3ccccc3)C(C(=O)O)C2c2ccccc2)c1 (stereo not given)
i	-0.08	O=C(NCc1cccs1)C1CC1
i	-0.65	Cc1ccc(C)c(NC(=S)Nc2cccnc2)c1
i	1.41	CCOC(=O)C1=C(C)Nc2nc(SCC(=O)OC)nn2C1c1cc(F)cc(F)c1 (stereo not given)
i	0.18	C(=C\c1nc(-c2cccnc2)no1)/c1ccccc1
i	-0.34	CC(C)(C)NC(=O)C1CC(=O)OC12CCOC(C)(C)C2 (stereo not given)
i	-0.16	OCCC1CN(Cc2nc3c(s2)CCCC3)CCN1CCc1ccccc1 (stereo not given)
i	-0.9	CCOc1ccc(-c2nc(S(=O)(=O)c3ccccc3)c(NCc3cccnc3)o2)cc1
i	0.98	COc1cccc(-n2nnnc2SCC(=O)NCCc2ccc(OC)c(OC)c2)c1
i	-0.51	C/C(=C\C(=S)Nc1ccccc1)Nc1cccc2ccccc12
i	2.06	CCCCn1c(N)c(N(Cc2ccccc2OC)C(=O)CCSC)c(=O)[nH]c1=O
i	0.51	CCCc1cc(=O)[nH]c(SCCOc2ccc(Cl)cc2)n1
i	0.23	CCCCN(C)C(=O)c1cccc(OC2CCN(CC(C)(C)C)CC2)c1
i	0.21	COc1cccc(CC(=O)Nc2ncc(C)s2)c1
-5.69*	-1.87*	NC(=NCCc1c[nH]c2ccccc12)NC(=O)c1ccc(Cl)cc1
i	0.07	CC(=O)NCc1ccc(S(=O)(=O)N/N=C/c2ccccc2)cc1
i	1.37	O=C(CNCc1ccccc1)NCCCN1CCCC1=O
i	-0.11	Cc1ccc(C)c(NS(=O)(=O)c2ccc(OCC(=O)NCc3ccccn3)cc2)c1
i	-0.09	COc1cccc(C(=O)NCCCn2ccnc2)c1
i	1.71	CC(C)[C@@H](C(=O)N[C@@H](Cc1ccccc1)C(=O)O)N1C(=O)N2CCc3c([nH]c4ccccc34)[C@@]2(C)C1=O
i	-0.55	COc1ccccc1NC(=S)NCc1cccs1
i	2.78	COc1cc(/C=C2\SC(=S)N(C(Cc3ccccc3)C(=O)O)C2=O)ccc1O (stereo not given)
i	0.66	O=C1CCCCC1Sc1nnc(Nc2ccccc2)s1 (stereo not given)
i	-0.09	C/C(=N\NC(=O)c1c(Br)c(C)nn1C)c1cccc(NC(=O)c2ccccc2F)c1
i	1.44	Cc1ccc(NC2=C(Cl)C(=O)OC2OC(=O)c2ccccc2C)cc1 (stereo not given)
i	-0.36	CC(=O)Nc1cccc(NC(=O)CSc2nc(=O)n(CCCN3CCOCC3)c3c2CCC3)c1
i	-0.15	CCOC(=O)c1ccc(OCCOc2cccc(C)c2)cc1
i	2.69	CCC/C=N/NC(=O)c1ccc(F)cc1

Single records, from the list above. Values in the order: KCNQ2 inh | KCNQ2 inh baseline
Results for Cc1ccc(NC2=C(Cl)C(=O)OC2OC(=O)c2ccccc2C)cc1 (stereo not given) : i | 1.44
Results for COc1cccc(CC(=O)Nc2ncc(C)s2)c1 : i | 0.21
Results for O=C1CCCCC1Sc1nnc(Nc2ccccc2)s1 (stereo not given) : i | 0.66

Next part:
KCNQ2 inh	KCNQ2 inh baseline	smiles
i	-0.88	O=C(CN1C(=O)C2CC=CCC2C1=O)OCCN1C(=O)c2ccccc2C1=O (stereo not given)
i	-0.06	CCCCCCCN1C2=NCCCN2c2ccccc21
i	-0.21	c1ccc(OCCCN2CCCC2)cc1
i	-0.87	O=C(c1cccc(-c2ccccc2)c1)N1CC[C@@H](N2CCC(O)CC2)[C@H](O)C1
i	0.31	C=CCSc1nc2ccccc2n1C(=O)/C=C/c1ccc(OC)c(OC)c1
i	-2.51	CC(C)c1ccc(NC(=O)CN2C(=O)c3ccccc3S2(=O)=O)cc1
i	0.95	O=C(NCCC1=CCCCC1)C1CCC(=O)N(Cc2ccc(Cl)cc2)C1 (stereo not given)
i	-0.83	COc1ccc(CCNC(=O)c2cc(COc3c(F)cccc3F)on2)c(OC)c1
i	0.02	COc1ccc(CC2CC(=O)N(c3ccc(C)cc3)C2=O)cc1 (stereo not given)
i	1.25	O=C(CSc1nnnn1-c1cccnc1)NCc1cccs1
